Mtb growth: Mycobacterium tuberculosis H37Rv growth inhibition, putative kinase inhibitor library, confirmatory dose response (AID 2842) | inhibition, % at 10 µg/mL; hits with a dose series show IC90 in µg/mL | M. tuberculosis H37Rv growth inhibition; higher % means a stronger effect; some inactives read as strong as hits | 24,000 tested, 5.2% active;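 active = confirmed in a dose series; inconclusive = mostly over 85% at the one dose but not retested; inactive = below 85% or not confirmed; about a fifth of its hits are not listed in these tables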;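 note: bacteria incubated one week before Alamar blue readout; 0% = bacteria only wells and 100% = bacteria with high antibiotic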
Active calls of the source: *; ? = inconclusive. A portion of the library (hit frequency here may not be typical).

SMILES	Mtb growth
COc1ccc(OC)c(NC(=O)c2oc3ccccc3c2NC(=O)CC(C)C)c1	-2%
NC(=O)c1c(NC(=O)c2cc(Cl)cc(Cl)c2)sc2c1CCCCC2	-9%
Cc1ccc(-c2nc3c(c(SCC(=O)Nc4cccc(C(=O)O)c4)n2)Cc2cccc(C)c2O3)cc1	-11%
COc1ccc(OC)c(NC(=O)c2oc3ccccc3c2NC(=O)c2cccs2)c1	2%
CCN1CCN(c2nc3c(c(=O)n(C)c(=O)n3C)n2CCSc2nccc(C)n2)CC1	-1%
CCOC(=O)c1nn(-c2cccc(Cl)c2)c(=O)c2c(NC(=O)c3c(-c4ccccc4Cl)noc3C)scc12	-4%
Cc1cccc(OCCCn2c(C(C)O)nc3ccccc32)c1 (configuration not stated)	81%
Nc1cc(=O)[nH]c(SCc2ccc(C(=O)c3ccccc3)cc2)n1	?
CCOC(=O)c1cc(NC(=O)Nc2cccc3ccccc23)c(C)nc1C	-4%
Cc1ccc2cc(CCNC(=O)CC(C)C)c(=O)[nH]c2c1C	-2%
O=C(Nc1nc2c(s1)CCc1ccccc1-2)c1cccc(Cl)c1	12µg/mL*
COc1ccc(N2CCN(c3cc(=O)n(-c4ccc(C)cc4)c(=O)[nH]3)CC2)cc1	-9%
COc1ccc(N2CC(NC(=O)NCc3cccs3)CC2=O)cc1 (configuration not stated)	18%
N#Cc1ccc(C(=O)Nc2ccc(-c3csc(NC(=O)c4ccc(C#N)cc4)n3)cc2)cc1	-2%
CCOC(=O)C(Sc1nc(N)c(NC(=O)c2ccco2)c(=O)[nH]1)C(=O)OCC	-3%
O=C(Nc1cccc([N+](=O)[O-])c1)c1c[nH]c(=O)n(-c2ccc(F)c(Cl)c2)c1=O	11%
COc1ccc(NC(=O)c2oc3ccccc3c2NC(=O)c2ccccc2C(F)(F)F)cc1OC	10%
C=CCn1c(=NC(=O)c2nc3ccccc3s2)sc2cc(NC(C)=O)ccc21	9%
CCCCc1nc(SCc2ccccn2)c2c(=O)n(C)c(=O)n(C)c2n1	-5%
CCC(Sc1ccc(Cl)cc1)C(=O)Nc1nnc(-c2cc(OC)ccc2OC)s1 (configuration not stated)	-5%
Cn1cccc1/C=C1/SC(=Nc2ccccc2)NC1=O	55%
COc1ccccc1OCC(=O)NC1CC(=O)N(c2ccc(Cl)cc2)C1 (configuration not stated)	-3%
CCn1c(SCC(=O)Nc2cccc(OC)c2)nc2c(c1=O)SC(C)C2 (configuration not stated)	-3%
COc1cccc(C(Nc2ccccn2)c2c(C)[nH]c3ccccc23)c1 (configuration not stated)	6%
O=C(Oc1ccc2c(-c3cc4cc(Cl)ccc4oc3=O)cc(=O)oc2c1)N1CCOCC1	-7%

2 entries picked at random from the list so far, as already listed:
SMILES	Mtb growth
Cn1cccc1/C=C1/SC(=Nc2ccccc2)NC1=O	55%
CCC(Sc1ccc(Cl)cc1)C(=O)Nc1nnc(-c2cc(OC)ccc2OC)s1 (configuration not stated)	-5%

Remaining list, next part.
SMILES	Mtb growth
Cc1cc(C)nc(NS(=O)(=O)c2ccc(NC(=O)c3ccc(Cl)cc3)cc2)n1	15%
O=C(/C=C\c1ccc2c(c1)OCO2)Nc1c(C(=O)Nc2ccccc2)oc2ccccc12	-1%
O=C(O)C(CO)Nc1ncnc2ccc(Br)cc12 (configuration not stated)	-1%
Fc1ccc2nc(Nc3ccc(Cl)cc3)sc2c1	17%
CCOC(=O)c1c(C)[nH]c(C(=O)CSc2nnnn2-c2ccccc2)c1C	13%
CCOC(=O)c1nn(-c2ccccc2)c(=O)c2c(NC(=O)c3ccccc3F)scc12	-1%
Cc1cc2cc(CCNC(=O)c3ccc4ccccc4c3)c(=O)[nH]c2cc1C	-2%
Cc1cc2c(=O)n(Cc3ccco3)c(SCC(=O)Nc3ccc4c(c3)OCO4)nc2s1	9%
Cc1ccc(NCN2C(=O)c3ccncc3C2=O)cc1	11%
Fc1cccc2sc(Nc3nnc(-c4ccccc4Cl)o3)nc12	17µg/mL*
CCOC(=O)c1nn(-c2ccc(OC)cc2)c(=O)c2c(NC(=O)COc3ccc(Cl)cc3Cl)scc12	3%
O=C1Nc2ccc(S(=O)(=O)Oc3ccc4oc5ccccc5c4c3)c3cccc1c23	2%
Cc1ccc(COc2coc(CSc3nncn3C)cc2=O)cc1	9%
Cc1ccccc1NC(=O)c1cccc(Nc2nc(-c3ccccc3)c3cc(Br)ccc3n2)c1	75%
CC(Sc1nc2ccccc2s1)C(=O)Nc1nnc(-c2ccc(F)cc2)s1 (configuration not stated)	-1%
COc1ccc(C(=O)Nc2c(N)nc(SCC(=O)Nc3cccc(Cl)c3)[nH]c2=O)cc1OC	-6%
CCOC(=O)c1nn(-c2ccc(F)cc2)c(=O)c2c(NC(=O)c3cccc([N+](=O)[O-])c3)scc12	-6%
Cc1ccc2cc(CCNC(=O)c3ccc(S(=O)(=O)N4CCOCC4)cc3)c(=O)[nH]c2c1C	-4%
CCc1ccc(-c2nnc3c4cc(OC)c(OC)cc4n(Cc4ccccc4F)cc2-3)cc1	8.1µg/mL*
O=C(O)CNC(=O)COc1ccc2c(-c3ccccc3)cc(=O)oc2c1	-20%
COc1cccc(C(=O)Nc2nnc(C3=COCCO3)o2)c1	4.8µg/mL*
CCOc1ccc(-c2nc(NC(=O)c3cc4ccccc4oc3=O)sc2C)cc1	2%
Cc1cccc2sc(NNC(=O)c3ccc(N(C)C)cc3)nc12	29µg/mL*
O=C(Nc1nccs1)c1cc2cc([N+](=O)[O-])ccc2s1	1%
CN(CC(=O)O)C(=O)c1ccc(S(=O)(=O)N2CCOCC2)cc1	-5%
Next section:
SMILES	Mtb growth
COC(=O)c1ccc(CSc2nnc3[nH]c(=O)c(C)c(C)n23)o1	-3%
CCOc1ccc2c(c1)O/C(=C\c1ccc(OS(C)(=O)=O)c(OC)c1)C2=O	0%
CCOc1ccc(NC(=O)CSc2nncc(=O)n2N)cc1	?
O=C(CCc1n[nH]c(=O)[nH]c1=O)N/N=C/c1ccco1	-10%
Cc1ccc(-c2nc3ccccc3c(=O)[nH]2)cc1	1%
CCOC(=O)c1cc(NC(=O)Nc2ccc(Cl)cc2)c(C)nc1C	2%
CCOC(=O)c1oc2ccccc2c1NC(=O)c1ccc(S(=O)(=O)N2CCCCC2)cc1	5%
Cn1c(=O)c2c(nc(N3CCCCC3)n2CCSc2nnnn2-c2ccccc2)n(C)c1=O	1%
Nc1nc(SCC(=O)NCc2ccc(F)cc2)[nH]c(=O)c1NC(=O)c1ccccc1	-5%
COc1cccc(CCNC(=O)C(=O)Nc2cccc(OC)c2)c1	23%
C=CCNc1nc(-c2ccc([N+](=O)[O-])cc2)c(C(=O)Nc2ccccc2)s1	-1%
Cc1ccc(C(=O)c2cn(Cc3ccc(F)cc3)c3ccc(F)cc3c2=O)cc1	13µg/mL*
CS(=O)(=O)Nc1ccc(C#N)c(Cl)c1	-6%
COCCn1c(=O)c2c(nc3n(Cc4ccco4)c(C)c(C)n23)n(C)c1=O	5%
O=C1N=c2ccccc2=C1c1c(O)n(-c2ccccc2)[nH]c1=O	-1%
COc1ccc(OC)c(-c2csc(NC(=O)c3ccc([N+](=O)[O-])o3)n2)c1	27µg/mL*
CCOc1cc(C(=O)NCC(=O)N/N=C/c2ccccc2)cc(OCC)c1OCC	-15%
O=C(CSc1nc2c(c(=O)n1-c1ccccc1)SCC2)Nc1cccc(C(F)(F)F)c1	8%
COc1ccc(-n2nc3c(c2NC(=O)COc2ccc4ccccc4c2)CSC3)cc1	-4%
COc1ccc(NC(=O)c2oc3ccccc3c2NC(=O)c2ccccc2C)cc1OC	11%
COc1cccc(-c2nnc(NC(=O)C(C)C)o2)c1	33µg/mL*
COc1cccc2c1Oc1nc(-c3ccccc3)nc(SCC(N)=O)c1C2	11%
COc1ccc(CNc2nc3c(S(=O)(=O)c4ccc(F)cc4)nnn3c3ccccc23)cc1	4%
O=C(CSc1ncc(S(=O)(=O)c2ccc(Cl)cc2)c(=O)[nH]1)Nc1ccc(F)cc1F	-4%
Cc1cccc(NC(=O)c2cnc3scc(C)n3c2=O)c1C	1%

Some of the entries above, set out differently.
| SMILES | Mtb growth |
| --- | --- |
| O=C(CSc1nc2c(c(=O)n1-c1ccccc1)SCC2)Nc1cccc(C(F)(F)F)c1 | 8% |
| Cc1ccc(C(=O)c2cn(Cc3ccc(F)cc3)c3ccc(F)cc3c2=O)cc1 | 13µg/mL* |

Seven successive compounds from above:
SMILES	Mtb growth
COc1ccc(-n2nc3c(c2NC(=O)COc2ccc4ccccc4c2)CSC3)cc1	-4%
COc1ccc(NC(=O)c2oc3ccccc3c2NC(=O)c2ccccc2C)cc1OC	11%
COc1cccc(-c2nnc(NC(=O)C(C)C)o2)c1	33µg/mL*
COc1cccc2c1Oc1nc(-c3ccccc3)nc(SCC(N)=O)c1C2	11%
COc1ccc(CNc2nc3c(S(=O)(=O)c4ccc(F)cc4)nnn3c3ccccc23)cc1	4%
O=C(CSc1ncc(S(=O)(=O)c2ccc(Cl)cc2)c(=O)[nH]1)Nc1ccc(F)cc1F	-4%
Cc1cccc(NC(=O)c2cnc3scc(C)n3c2=O)c1C	1%

Next entries:
SMILES	Mtb growth
Cc1cc2c(cc1C)NC(CC(=O)Nc1ccc(I)cc1)C(=O)N2 (configuration not stated)	10%
CCOC(=O)C(CC)Sc1nc(N)c(NC(=O)c2ccc(OC)c(OC)c2)c(=O)[nH]1 (configuration not stated)	-13%
COc1ccc(C2=NN(C(=O)c3ccco3)C(c3cc4cc(OC)ccc4nc3Cl)C2)cc1 (configuration not stated)	-9%
Cc1ccc(C(=O)N2CCN=C2SCc2ccc([N+](=O)[O-])cc2)cc1C	9%
COc1ccc(C(=O)N(CCCn2ccnc2)c2nc3ccc(C)cc3s2)cc1OC	54%
CCOc1ccc(-c2nnc3ccc(SCC(=O)N4CCCCC4)nn23)cc1	-4%
Cc1ccc(C(=O)CSc2nnc3cc(C)c4ccccc4n23)s1	-4%
COC(=O)c1ccc(CSc2ncnc3c2nnn3-c2ccc(OC)cc2)o1	-2%
Cc1cccc(C(=O)Nc2cc3c4c(c2)CCC(=O)N4CCC3)c1	28%
CCN1CCN(C(c2ccc(OC)c(OC)c2)c2sc3ncnn3c2O)CC1 (configuration not stated)	-6%
O=C(CSc1ccc2nnc(-c3ccncc3)n2n1)NCC1CCCO1 (configuration not stated)	-2%
Cc1cc(NC(=O)CSc2nnc(C3COc4ccccc4O3)o2)no1 (configuration not stated)	-5%
CC(=O)NCCc1cc2c(C)ccc(C)c2[nH]c1=O	-4%
Cc1nc2ccc3nc(NC(=O)c4ccccc4Br)sc3c2s1	4%
COc1ccc(/C=c2\sc3nc(-c4ccncc4)nn3c2=O)cc1	-14%
COC(=O)c1c(NC(=O)c2nc3ccccc3s2)sc2c1CC(C)(C)NC2(C)C	10%
COc1ccc(CNC(=O)c2cc3c(=O)n4ccccc4nc3n2C)cc1	-7%
COc1ccccc1C(=O)Nc1ccc2c(c1)C(=O)NC2=O	-13%
CCOC(=O)c1nn(-c2ccc(Cl)cc2)c(=O)c2c(NC(=O)c3ccc(C)c([N+](=O)[O-])c3)scc12	-7%
CS(=O)(=O)c1ccc(-c2nnc(NC(=O)c3cc4cc([N+](=O)[O-])ccc4s3)o2)cc1	2%
O=C(Nc1nnc(-c2ccccc2Cl)s1)c1c(F)cccc1Cl	-8%
Cc1cc(C(=O)N=Nc2c(O)[nH]c3ccc(Br)cc23)n[nH]1	-3%
CC(C)CCn1c(SCC(N)=O)nc2c1c(=O)n(C)c(=O)n2C	0%
Cc1cccc(OCc2n[nH]c(=S)n2Cc2ccco2)c1	13%
CCOC(=O)c1nn(-c2ccccc2)c(=O)c2c(NC(=O)Cc3ccc(F)cc3)scc12	-5%
(more compounds)
SMILES	Mtb growth
Cc1cc(NC(=O)c2cccc([N+](=O)[O-])c2)nc2c1c(=O)oc1ccccc12	1%
Fc1cccc(Nc2ncnc3nc[nH]c23)c1	5%
CC1Cc2nc(SCC(=O)Nc3ccc4c(c3)OCCO4)n(Cc3ccccc3)c(=O)c2S1 (configuration not stated)	-4%
COc1ccccc1C(=O)Nc1nnc(-c2cccc(C)c2)s1	6%
CCOC(=O)c1nn(-c2ccc(OC)cc2)c(=O)c2c(NC(=O)c3ccccc3[N+](=O)[O-])scc12	0%
Cc1ccc(SCC(=O)Nc2nnc(-c3c(C)cc(C)cc3C)s2)cc1	-2%
NC(=O)c1c(NC(=O)c2cc3ccccc3oc2=O)sc2c1CCN(Cc1ccccc1)C2	5%
COc1ccc(C(=O)CSc2ncnc3c2nnn3-c2ccc(F)cc2)cc1	-5%
Cc1nc2c(ccc3nc(NC(=O)CN4C(=O)CCC4=O)sc32)s1	-6%
CCOC(=O)c1oc2ccccc2c1NC(=O)COc1cccc(OC)c1	-1%
CCc1ccc(C(=O)c2cn(Cc3cccc(OC)c3)c3cc4c(cc3c2=O)OCO4)cc1	59%
Cc1nnc(NC(=O)CSc2nnc(CNC(=O)c3cccc4ccccc34)n2-c2ccccc2)s1	-2%
Clc1ccc(Cl)c2sc(N3CCN(c4ccccc4)CC3)nc12	35%
N#C/C(=C\Nc1ccc(C(N)=O)cc1)c1nc(-c2ccc(Cl)cc2Cl)cs1	-1%
Cc1cc(NS(=O)(=O)c2ccc(NC(=O)c3ccc4c(c3)OCCO4)cc2)no1	4%
O=C1CCc2cc(S(=O)(=O)Nc3cccc(Cl)c3Cl)cc3c2N1CC3	1%
Cc1ccc(/C(O)=C2\C(=O)C(=O)N(c3ccccn3)C2c2ccc(F)cc2)cc1 (configuration not stated)	-13%
O=C(Cn1ccn(-c2ccc3c(c2)OCCO3)c(=O)c1=O)Nc1ccccc1	0%
CCOC(=O)c1oc2ccccc2c1NC(=O)c1cccc(F)c1	17%
O=C(CSc1ccccc1)Nc1nnc(-c2ccccc2)s1	-3%
CCOc1ccc(N2CC(c3nc4ccc(C)cc4[nH]3)CC2=O)cc1 (configuration not stated)	-6%
COC(=O)c1sc(S(=O)(=O)Nc2ccc(C(=O)O)cc2)c(C(=O)OC)c1C	-3%
Cc1ccc(Cn2cc(SCC(=O)Nc3ccc(C)cc3)c3ccccc32)cc1	3%
COc1ccc2cc(CCNC(=S)Nc3cccc(Br)c3)c(=O)[nH]c2c1	84%
CCCCCCCn1c(SCC(=O)O)nc2c1c(=O)[nH]c(=O)n2C	18%
CN(CCCC(=O)Nc1cccc2ccccc12)S(=O)(=O)c1ccc(Cl)cc1	10%

Bioassay records (PubChem BioAssay)
